# Rce1 inh = yeast Ras-converting enzyme inhibition. Q03530. yeast membranes, quenched prenylated peptide cleavage fluorescence. calls only. 0.27% of 290,000 active. AID 2563;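 active = fall in fluorescence gain of 50% or more versus controls, with final raw signal at or below 3038400; inconclusive = same 50% fall but final raw signal above 3038400; inactive = fall in fluorescence gain under 50%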;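 note: plate controls were neutral control wells for no effect and wells lacking membranes for full effect; tested at 10 µM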
# Target sequence (Q03530 whole entry, looked up): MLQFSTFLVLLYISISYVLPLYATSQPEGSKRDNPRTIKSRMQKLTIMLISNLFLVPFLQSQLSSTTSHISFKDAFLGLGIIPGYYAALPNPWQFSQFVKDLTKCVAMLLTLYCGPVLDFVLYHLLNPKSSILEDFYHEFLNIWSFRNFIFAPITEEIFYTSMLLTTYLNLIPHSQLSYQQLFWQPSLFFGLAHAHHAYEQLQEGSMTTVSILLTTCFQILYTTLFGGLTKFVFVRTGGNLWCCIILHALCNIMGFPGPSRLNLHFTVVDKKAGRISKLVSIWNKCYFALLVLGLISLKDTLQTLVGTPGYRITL
# HIV Env fusion = blocks HIV Env-driven cell-cell fusion | HeLa-JRFL Env/CEM21 cell fusion, luciferase | inhibition, % at 12.3 µM | 1.1% of 360,000 active | AID 651610;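 active = mean replicate inhibition score of at least 50 and every replicate individually at or above 50; inconclusive = only one of the two criteria met; inactive = mean below 50 and not all replicates reaching 50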;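 note: 0% = plate neutral controls and 100% = maraviroc near 300 nM; one replicate is shown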
# CSC inhib = blocks cancer stem cells | cancer stem cell-like cells viability, luminescence | inhibition, % at 7.5 µM | 1.1% of 300,000 active | AID 2717;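 active = mean at 75% or more and at least half the replicates too; inconclusive = mean and replicates disagree; tested in HMLE shEcad cells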;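 note: 0% = median of negative and 100% = median of positive control wells; the first replicate is given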
# eIF4H FP inh = inhibitors of RNA binding by human eIF4H | Q15056 | eIF4H fluorescence polarization binding assay | AID 2012 | 0.94% of 290,000 active | inhibition, % at 35 µM;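 active = 50% or more with normal probe brightness, or confirmed in later tests; inconclusive = above 50% with abnormal brightness, or retests that disagree; inactive = below 50% or failed in later tests; about a fifth of its hits are not listed in these tables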;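 note: calls also rest on retests at 20 µM and on dose response follow-up; 0% = protein and probe with vehicle and 100% = probe without protein; strong numbers were not always called active; many hits fall short of the cut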
# PABP FP inh = PABP-poly(A) binding inhibition. PABP-poly(A) RNA binding, fluorescence polarization. inhibition, % at 35 µM. 1% of 290,000 active. AID 2014;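 active = 50% or more with normal probe brightness, or confirmed in later tests; inconclusive = above 50% with abnormal brightness, or retests that disagree; inactive = below 50% or failed in later tests; about a fifth of its hits are not listed in these tables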;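 note: calls also rest on retests at 20 µM and on dose response follow-up; controls were probe without protein and protein plus probe with vehicle; some compounds called inactive have numbers as strong as hits; many hits fall short of the cut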
# Yeast UUG start = yeast start codon fidelity modulation. S. cerevisiae UUG-firefly luciferase reporter, luminescence/redox ratio. activity score, % at 18.7 µM. 0.13% of 350,000 active;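 active = replicate mean at a twofold rise or more, about +100% in these data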;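 note: firefly luciferase made from a UUG start codon reports start codon fidelity; reporter light over untreated wells divided by growth signal over untreated wells; some hits fall short of that in this replicate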
# MT1-MMP act inh = MT1-MMP (human) activation inhibition; AID 651647; GFP/RFP ratio change, % at 20 µM; HT1080 RFP-PRO-GFP cells, GFP/RFP ratio fluorescence, overnight; percent of plate control window, DMSO zero; 0.061% of 360,000 active; P50281;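 active = GFP/RFP ratio change of at least 30% with cell ATP level not reduced by more than half and red fluorescence within 50% of control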; note: strong numbers were not always called active
#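 system = RFP-PRO-GFP reporter HT1080 cells | dosing = 20 µM single dose, 1% DMSO | timing = overnight cell settling, then overnight compound exposure, 37 °C, 5% CO2 | read-out basis = GFP/RFP fluorescence ratio | controls = DMSO and RFP-L50D-GFP cell wells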
# MT1-MMP act inh RFP = recorded beside MT1-MMP act inh, whose call it bears; RFP signal change, %; measured here: RFP expression control read;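 0 = vehicle wells; hits needed this value within 50% of zero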
# * hit, by the source's call; i = inactive; u = inconclusive; x = no result given. Some of the compounds tested. The share of hits here may be higher or lower than overall.
# Every second line gives: Rce1 inh, HIV Env fusion, CSC inhib, eIF4H FP inh, PABP FP inh, Yeast UUG start, MT1-MMP act inh, MT1-MMP act inh RFP
- CCc1nc(N)c(C#N)c(-c2ccco2)c1C
  i, -170, 10, 3, 11, 10, 0, -2
- Cc1cccc(N2CCN(S(=O)(=O)c3ccc4c(c3)CCC(=O)N4)CC2C)c1 (stereo not given)
  i, 15, 9, 0, 6, -7, -1, 0
- COCCCNc1nc2nonc2nc1N1CCN2CCCC2C1 (stereo not given)
  i, -2, -12, 10, -8, x, -2, -5
- COc1ccc(-c2nc(CN3CCN(C(=O)c4ccco4)CC3)c(C)o2)c(OC)c1C
  i, 7, -7, 5, -1, -5, -2, -5
- CCOC(=O)c1ccc(-n2c(C)nc3ccc(Br)cc3c2=O)cc1
  i, -5, 0, -1, 0, x, -1, -8
- CC1(C)CN2C(=S)N(c3ccccc3)C(c3ccccc3)N2C1 (stereo not given)
  i, -6, 12, 4, -4, -11, -3, 2
- CCc1cc(=O)oc2cc(OS(C)(=O)=O)ccc12
  i, -313, 1, x, x, -10, -5, 3
- COc1ccc2cc(C(=O)Nc3ccc(F)cc3)sc(=O)c2c1OC
  i, -4, -7, -16, -12, 0, 5, 7
- CCN(CC)C(=O)Cn1cc(C(=O)C(=O)Nc2ccc3c(c2)OCCO3)c2ccccc21
  i, -52, -4, -1, 11, 6, -1, -2
- Cc1cc(NC(=O)CSc2nc3ccsc3c(=O)n2CCCCC(=O)O)no1
  i, x, -4, -6, 12, -4, -2, -3
- Oc1ccc(C[C@@H]2CNCCN2CCCCC2CCCCC2)cc1
  i, 20, 45, x, x, 32, -2, -2
- CCOC(=O)n1c(=O)[nH]c2ccc(Br)cc21
  i, -49, 3, 7, 34, x, 3, 9
- CCOC(=O)c1ccc(-c2cc(C)no2)[nH]1
  i, x, 1, 3, 0, x, 3, -3
- CC1Oc2ccccc2OC1C(=O)Nc1ccccn1 (stereo not given)
  i, x, 6, -7, 6, -10, -8, -3
- COc1cccc(C(=O)N/N=C(\C)c2ccc(NC(=O)Cc3ccccc3)cc2)c1OC
  i, 20, -16, -3, -6, 1, 0, 1
- COc1ccc(C(=O)NCCSCc2ccccc2)cc1OC
  i, 16, -7, 4, 4, -7, -3, 1
- CCCc1ccc(OCc2ccc(C(=O)N/N=C/c3cccnc3)o2)cc1
  i, -79, -3, -3, -9, -13, 5, -3
- COc1ccccc1-c1noc(CCC(=O)Nc2cc(C(F)(F)F)ccc2Cl)n1
  x, 10, 8, -9, -4, -11, 3, -6
- CCN(C(=O)COC(=O)/C=C/c1cccc(Cl)c1)c1c(N)n(Cc2ccccc2)c(=O)[nH]c1=O
  x, x, 9, x, x, -16, -3, -5
- CC(CNC(=O)CCS(=O)(=O)c1ccc2c(c1)NC(=O)CO2)c1ccccc1 (stereo not given)
  i, -18, 1, -11, -7, 1, -2, 1

# Next records:
# Every second line gives: Rce1 inh, HIV Env fusion, CSC inhib, eIF4H FP inh, PABP FP inh, Yeast UUG start, MT1-MMP act inh, MT1-MMP act inh RFP
- O=C(NC1CCCCC1)C1CCN(S(=O)(=O)c2cccs2)CC1
  x, x, -7, 5, 2, -2, 1, 11
- Cc1ccn2c(NC(=O)C(C)(C)Oc3ccc(Cl)cc3)c(-c3cccs3)nc2c1
  i, 2, -16, -6, -1, -2, 3, 0
- CC1CCN(C(=O)COC(=O)c2cccc(S(=O)(=O)N3CCOCC3)c2)CC1
  x, -16, x, x, x, -7, 3, 5
- Cc1nc([N+](=O)[O-])c(C(=O)OCc2cccc(Br)c2)n1C
  i, 16, -16, 0, 17, 2, 4, -1
- O=C(Cc1cccc2ccccc12)NCC1CCCO1 (stereo not given)
  i, x, x, -10, -8, -12, -2, 4
- COC(=O)c1ccsc1-n1cc(C#N)c(=O)n(C)c1=O
  i, 9, -8, 3, -6, -15, -2, 2
- CCOC(=O)c1c(NC(=S)N2CCOCC2)sc(C)c1C
  i, -8, x, 2, -6, -21, -1, 2
- COc1ccc(Br)cc1[C@H]1[C@H]2C=CC[C@@H](C)[C@@H]2C(=O)N1Cc1ccccc1
  i, 28, x, 8, -12, -20, -5, -18
- NC(=O)c1ccc(N=C2C(=O)Nc3ccc([N+](=O)[O-])cc32)cc1
  i, -6, -10, -2, 8, x, 1, 3
- COc1ccc(-c2coc3cc(O)cc(O)c3c2=O)cc1OC
  i, -34, x, -2, -5, x, -3, 0
- CCOC(=O)Cc1nn[nH]n1
  i, 0, -12, 2, u, x, 1, 2
- COc1cccc2[nH]c3c(N4CCC(C)CC4)ncnc3c12
  i, x, -4, 1, 12, -23, 10, -12
- COc1ccc(NC(=O)c2c(F)cccc2Cl)cc1S(=O)(=O)N1CCOCC1
  x, 22, -5, x, x, -20, 2, 2
- COc1ccc(-n2c(SCC(C)=O)nc3sc(C)c(C)c3c2=O)cc1
  i, 19, -14, 1, 7, 1, -2, -2
- COc1cccc(C2=NOC(C(=O)Nc3cc(OC)c(OC)c(OC)c3)C2)c1 (stereo not given)
  i, 15, -4, -4, -9, -14, 1, -10
- CCC1(CC)Nc2ccccc2C(=O)N1c1ccc(OC)cc1
  x, -24, 0, -4, -8, x, 3, 3
- Cc1ccc2nc(SCC(=O)NCc3ccc(F)cc3)nc(=O)n2c1
  i, 10, -10, x, x, -8, -2, -3
- CCN(C(=O)COc1cc(=O)n(C)c2ccccc12)c1cccc(Cl)c1
  i, -46, -8, -5, -3, -6, 8, -4
- O=C(/C=C/c1cccc(F)c1)Nc1ccc(S(=O)(=O)N2CCOCC2)cc1
  x, -6, 2, x, x, -2, 6, -14
- CCN(CC)CCCC(C)Nc1nccc2cccc(Cl)c12 (stereo not given)
  x, -119, x, x, x, 0, -5, 0

# Among those listed so far, 2 contain a cyano group:
# Every second line gives: Rce1 inh, HIV Env fusion, CSC inhib, eIF4H FP inh, PABP FP inh, Yeast UUG start, MT1-MMP act inh, MT1-MMP act inh RFP
- CCc1nc(N)c(C#N)c(-c2ccco2)c1C
  i, -170, 10, 3, 11, 10, 0, -2
- COC(=O)c1ccsc1-n1cc(C#N)c(=O)n(C)c1=O
  i, 9, -8, 3, -6, -15, -2, 2

# The main list resumes, repeating the two entries before the break.
# Assay codes – A = Rce1 inh; B = HIV Env fusion; C = CSC inhib; D = eIF4H FP inh; E = PABP FP inh; F = Yeast UUG start; G = MT1-MMP act inh; H = MT1-MMP act inh RFP
> O=C(/C=C/c1cccc(F)c1)Nc1ccc(S(=O)(=O)N2CCOCC2)cc1
  A = x | B = -6 | C = 2 | D = x | E = x | F = -2 | G = 6 | H = -14

> CCN(CC)CCCC(C)Nc1nccc2cccc(Cl)c12 (stereo not given)
  A = x | B = -119 | C = x | D = x | E = x | F = 0 | G = -5 | H = 0

> COc1ccc2[nH]cc(C=O)c2c1
  A = i | B = -68 | C = -9 | D = -6 | E = -4 | F = -16 | G = 1 | H = 9

> COCCCNC(=O)c1c[nH]c2ccc(S(=O)(=O)N(C)c3ccccc3C)cc2c1=O
  A = i | B = 15 | C = -5 | D = 0 | E = 4 | F = x | G = 5 | H = -4

> CCC(C)C(CO)NCCCn1cnc2c(OC)ncnc21 (stereo not given)
  A = x | B = 13 | C = x | D = x | E = x | F = -19 | G = 1 | H = 4

> N#Cc1c(C#N)c(-c2ccccc2)n(-c2ccc(C(=O)O)cc2)c1N
  A = i | B = x | C = 5 | D = -8 | E = 1 | F = -6 | G = 0 | H = 2

> O=C(NC(c1ccccc1)c1ccc2ccccc2n1)C1CCN(CCOc2ccc(Cl)cc2Cl)CC1 (stereo not given)
  A = x | B = 50 | C = x | D = x | E = x | F = -22 | G = -1 | H = -8

> CC(=O)N1CCOc2cc(S(=O)(=O)N3CCN(c4ccccc4)CC3)c(Cl)cc21
  A = i | B = 8 | C = 2 | D = -13 | E = -8 | F = -2 | G = -4 | H = 2

> O=C(Nc1cccc(F)c1)C1CCN(C(=O)c2ccco2)CC1
  A = i | B = 13 | C = -13 | D = -2 | E = 7 | F = -7 | G = 5 | H = 8

> Cc1ccc(OCCC(=O)Nc2ccccc2C(=O)N2CCCCC2)cc1
  A = i | B = 4 | C = 1 | D = x | E = x | F = 7 | G = -4 | H = 1

> Cc1cc(Cl)ccc1NC(=S)NCC(C)C
  A = i | B = 2 | C = -14 | D = -5 | E = 15 | F = x | G = 6 | H = 1

> Cc1ccc(S(=O)(=O)/C(C#N)=C/c2c(N3CCOCC3)nc3c(C)cccn3c2=O)cc1
  A = i | B = -5 | C = -19 | D = u | E = u | F = -5 | G = -1 | H = -1

> Cc1cccc(NC(=O)/C(C#N)=C\c2cccnc2)c1
  A = i | B = -78 | C = -11 | D = -15 | E = -7 | F = -23 | G = -3 | H = 3

> CCOc1ccc(/C=C/C(=O)NCCc2ccc(OC)c(OC)c2)cc1
  A = i | B = x | C = 2 | D = 7 | E = 8 | F = 2 | G = 0 | H = -3

> Cc1cc(=O)oc(C)c1C(=O)N1CCCc2ccccc21
  A = i | B = -33 | C = -14 | D = -7 | E = -5 | F = -14 | G = 1 | H = 4

> COc1ccc(C(=O)Oc2ccc(-c3nnco3)cc2)cc1S(=O)(=O)N1CCOCC1
  A = i | B = 3 | C = -7 | D = x | E = x | F = x | G = 2 | H = 1

> COc1ccc(C(CNC(=O)c2ccccc2SC)N(C)C)cc1 (stereo not given)
  A = i | B = -4 | C = x | D = 6 | E = 1 | F = x | G = 3 | H = 0

> COC(=O)c1c(NC(=O)c2ccc(C)o2)sc2c1CCCCC2
  A = i | B = -70 | C = x | D = 10 | E = 7 | F = -7 | G = -3 | H = 1

> CC1CCC(NC(=O)c2cc3c(=O)n(C)c4ccccc4c3n2C)CC1 (stereo not given)
  A = i | B = -42 | C = 11 | D = 0 | E = -5 | F = -11 | G = 8 | H = -1

> CCOC(=O)C1=C(COC(=O)COc2cc(C)ccc2C)NC(=O)NC1C (stereo not given)
  A = i | B = -17 | C = x | D = x | E = x | F = x | G = 2 | H = 3

> COCCCNC(=O)CC(NS(=O)(=O)c1ccc(C)cc1)c1ccco1 (stereo not given)
  A = i | B = x | C = 4 | D = 16 | E = 2 | F = -4 | G = 0 | H = 1

> CCN1CCN(C(=O)C(C)Sc2nc3nc(C)cc(C)n3n2)CC1 (stereo not given)
  A = x | B = 12 | C = 10 | D = x | E = x | F = -20 | G = 4 | H = 4

> O=C(/C=C\Nc1ccc(Cl)cn1)c1ccc(Br)cc1
  A = x | B = -20 | C = -8 | D = 12 | E = -7 | F = x | G = -4 | H = -2

> CCOc1ccc(-n2c(C)nc3cc(C(=O)NCC4CCCO4)ccc32)cc1 (stereo not given)
  A = i | B = 4 | C = -2 | D = -8 | E = -7 | F = -8 | G = 2 | H = 4

> COc1cccc(C(C(=O)NC(C)(C)C)N(CCc2ccccc2)C(=O)CCC(=O)Nc2cc(C)on2)c1OC (stereo not given)
  A = i | B = 9 | C = 0 | D = -10 | E = 12 | F = 0 | G = -2 | H = -6

> Cc1nc2ncnn2c(C)c1CCC(=O)NCc1ccc2c(c1)OCO2
  A = i | B = -57 | C = -5 | D = -20 | E = -7 | F = -15 | G = 2 | H = 3

> COc1ccccc1NC(=O)NCc1ccc2c(c1)OCO2
  A = i | B = x | C = x | D = -10 | E = 8 | F = x | G = x | H = x

# Among those listed so far, these contain a COOH group.
# Assay codes – A = Rce1 inh; B = HIV Env fusion; C = CSC inhib; D = eIF4H FP inh; E = PABP FP inh; F = Yeast UUG start; G = MT1-MMP act inh; H = MT1-MMP act inh RFP
> Cc1cc(NC(=O)CSc2nc3ccsc3c(=O)n2CCCCC(=O)O)no1
  A = i | B = x | C = -4 | D = -6 | E = 12 | F = -4 | G = -2 | H = -3

> N#Cc1c(C#N)c(-c2ccccc2)n(-c2ccc(C(=O)O)cc2)c1N
  A = i | B = x | C = 5 | D = -8 | E = 1 | F = -6 | G = 0 | H = 2

# Screening results (PubChem)
